Screens (PubChem BioAssay)
PV pol inh = inhibitors of poliovirus RNA polymerase binding and polymerization | P03300 | poliovirus polymerase elongation, fluorescence polarization; stronger effect = lower value | % elongation, % (compound at 16.7 µg/mL) | 150,000 compounds, 0.66% hits; in the data active = % elongation below about 90%; note: some results filed as inactive read as strong as hits
Target sequence (P03300 1749-2209 limits assumed): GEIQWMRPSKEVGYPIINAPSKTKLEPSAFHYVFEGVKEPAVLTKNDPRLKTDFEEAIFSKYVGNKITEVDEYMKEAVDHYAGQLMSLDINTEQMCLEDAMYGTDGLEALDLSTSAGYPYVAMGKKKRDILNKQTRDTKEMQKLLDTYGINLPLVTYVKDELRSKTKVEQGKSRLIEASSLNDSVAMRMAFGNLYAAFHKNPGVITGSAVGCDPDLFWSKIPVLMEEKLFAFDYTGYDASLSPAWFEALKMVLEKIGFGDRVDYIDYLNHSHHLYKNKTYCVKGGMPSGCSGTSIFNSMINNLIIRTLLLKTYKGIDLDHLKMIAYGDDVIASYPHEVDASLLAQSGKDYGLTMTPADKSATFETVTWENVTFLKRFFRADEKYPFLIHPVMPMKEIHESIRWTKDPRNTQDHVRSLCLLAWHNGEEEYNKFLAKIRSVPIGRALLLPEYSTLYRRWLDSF
MbtI inh = blocks the Mycobacterium tuberculosis siderophore enzyme MbtI; P9WFX0; purified MbtI enzyme, fluorescence intensity read-out; inhibition, %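 (about 17 µg/mL by stock and volumes)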; 100,000 compounds, 0.89% hits;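 active = above 50% in both replicates, above 80% if mildly self-fluorescent; inactive = the rest, strongly fluorescent compounds included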;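 note: 0% = mean of negative and 100% = mean of positive controls; one replicate is shown; some compounds called inactive have numbers as strong as hits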
Mtb MenB inh = blocks the Mycobacterium tuberculosis MenB enzyme | inhibition, %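 (about 12 µg/mL by stock and volumes)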 | 100,000 compounds, 0.43% hits | AID 540299 | P9WNP5 | MenB enzyme assay, absorbance read-out; some hits fall short of the stated cut;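 active = mean of two replicates above 30%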;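 note: 0% = no compound and 100% = wells with inactive enzyme; the first replicate is given; strong numbers were not always called active; inactives centre near -10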
Target sequence (P9WNP5 whole entry, looked up): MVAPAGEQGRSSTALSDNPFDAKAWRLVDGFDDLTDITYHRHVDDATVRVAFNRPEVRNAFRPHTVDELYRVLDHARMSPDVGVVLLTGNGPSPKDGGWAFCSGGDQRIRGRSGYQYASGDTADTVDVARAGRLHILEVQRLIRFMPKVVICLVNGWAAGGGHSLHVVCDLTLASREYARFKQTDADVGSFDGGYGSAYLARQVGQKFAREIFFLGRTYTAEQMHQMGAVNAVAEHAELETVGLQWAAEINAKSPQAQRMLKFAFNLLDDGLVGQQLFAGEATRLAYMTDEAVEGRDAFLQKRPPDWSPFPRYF
PV pol inh intensity = recorded beside PV pol inh, whose call it bears; % elongation; measured here: total intensity read-out; formula for this scale not given here;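 total fluorescence in place of polarization; lower means less elongation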
The depositor's hits bear a star; . = not tested or not shown.

compound,PV pol inh,PV pol inh intensity,MbtI inh,Mtb MenB inh
CC1CCCN(S(=O)(=O)c2ccc(C(=O)Nc3ccccc3-c3nc4ccccc4[nH]3)cc2)C1 (configuration not stated),104,109,-9,-61
N#Cc1ccc(NC(=O)COC(=O)c2cccc(F)c2)cc1,101,104,-6,-2
Cc1ccc(NC(=O)c2cccc(OC(=O)N(C)c3ccccc3)c2)cc1C,102,108,.,-12
O=C(Cc1ccccc1)NCCc1nc2ccccc2[nH]1,101,100,-2,-7
C/C=C/C(=O)N1CCCC(c2nc(-c3cccc(OC)c3)no2)C1 (configuration not stated),105,104,-4,-57
CCOc1ccc(Br)cc1S(=O)(=O)N(C)c1cccc(OC)n1,101,101,-3,-7
O=S(=O)(NCC1(N2CCCCC2)CCCCC1)c1cccs1,98,102,10,-11
CCOC(=O)N1CCC(NC(=O)c2ccc(CNS(=O)(=O)c3ccc(F)cc3)cc2)CC1,100,101,-8,-27
O=C(O)CCC(=O)NCc1ccccc1,101,104,2,7
CS(=O)(=O)c1sc(C(=O)Nc2ccccc2Cl)c2c1C=CCC2,107,111,-2,-1

A run of entries taken from the entries so far, as a working copy:
compound,PV pol inh,PV pol inh intensity,MbtI inh,Mtb MenB inh
CC1CCCN(S(=O)(=O)c2ccc(C(=O)Nc3ccccc3-c3nc4ccccc4[nH]3)cc2)C1 (configuration not stated),104,109,-9,-61
N#Cc1ccc(NC(=O)COC(=O)c2cccc(F)c2)cc1,101,104,-6,-2

Only PV pol inh intensity and MbtI inh (7 entries from above):
Molecule | PV pol inh intensity | MbtI inh
Cc1ccc(NC(=O)c2cccc(OC(=O)N(C)c3ccccc3)c2)cc1C | 108 | .
O=C(Cc1ccccc1)NCCc1nc2ccccc2[nH]1 | 100 | -2
C/C=C/C(=O)N1CCCC(c2nc(-c3cccc(OC)c3)no2)C1 (configuration not stated) | 104 | -4
CCOc1ccc(Br)cc1S(=O)(=O)N(C)c1cccc(OC)n1 | 101 | -3
O=S(=O)(NCC1(N2CCCCC2)CCCCC1)c1cccs1 | 102 | 10
CCOC(=O)N1CCC(NC(=O)c2ccc(CNS(=O)(=O)c3ccc(F)cc3)cc2)CC1 | 101 | -8
O=C(O)CCC(=O)NCc1ccccc1 | 104 | 2

The list continues:
compound,PV pol inh,PV pol inh intensity,MbtI inh,Mtb MenB inh
O=C(/C=C/c1ccco1)OC(C(=O)Nc1ccc(F)cc1)c1ccccc1 (configuration not stated),124,115,14,-32
O=C(O)CSC(O)C(=O)c1ccccc1 (configuration not stated),99,104,5,-11
CN(C)c1cccc(N2Cc3ccccc3C2=N)c1,101,105,-5,.
CCOC(=O)C1=NNC2C(=O)N(c3cccc(Cl)c3C)C(=O)C12 (configuration not stated),100,105,-5,8
Cc1nc2ccc(NC(=O)COCC(=O)O)cc2nc1C,100,102,88,-1
CCn1c2ccccc2n2cc(-c3ccccc3)nc12,95,99,.,-33
C=CCSC1=C(C#N)C2(CCCC2)C(C#N)C(=O)N1 (configuration not stated),103,102,-104,-49
COC(=O)c1c(-c2ccc(C)c(C)c2)csc1NC(=O)C1CCCCC1C(=O)O (configuration not stated),101,104,24,-11
CCn1cnc2scc(-c3ccccc3)c2c1=O,104,98,.,-22
O=C1CC2(CCCc3ccccc32)C(=O)N1CN1CCOCC1 (configuration not stated),99,106,-14,-6

The listing continues:
compound,PV pol inh,PV pol inh intensity,MbtI inh,Mtb MenB inh
CCC(=NCc1ccc(C#N)cc1)c1ccccc1O,108,114,-9,5
O=C(NC1CCS(=O)(=O)C1)c1cccc(S(=O)(=O)N2CCCC2)c1 (configuration not stated),99,100,0,-11
O=C(O)CC1(CC(=O)Nc2cccc(CO)c2)CCCC1,108,111,-4,-7
Cc1cccc(N2C(=O)C3C4C=CC(C4)C3C2=O)c1 (configuration not stated),99,102,-2,10
FC(F)(F)c1ccnc(NCCN=Cc2ccccc2)n1,102,102,14,-32
C=CCN=C1SC(C)(C)C(=O)N1S(=O)(=O)c1ccc(C)cc1,102,108,-14,-13
COc1cc(S(=O)(=O)N2CCCC2c2nc3ccccc3s2)ccc1NC(C)=O (configuration not stated),102,100,-9,-31
CCN(Cc1ccccc1)S(=O)(=O)c1ccc(-c2ccc(=O)[nH]n2)o1,101,101,-4,15
Cc1oc(-c2ccccc2F)nc1CS(=O)CC(=O)NCc1ccccn1 (configuration not stated),101,103,18,-18
COc1ccccc1NC(=O)COC(=O)C1CCCC1,102,99,-7,.

(next part)
compound,PV pol inh,PV pol inh intensity,MbtI inh,Mtb MenB inh
CCn1c2c(c3cc(C4CCCCC4)ccc31)CCC/C2=N\O,102,101,20,-23
OC1/C(=C/c2ccccc2)N2CCC1CC2 (configuration not stated),107,103,-5,-28
Cc1ccc(C)c2nc(SCC(=O)OC(C)C)c(C#N)cc12,104,107,5,-52
Nc1cc(N)nc(SCC(=O)NCCN2C(=O)CSC2=O)n1,98,90,-33,16
CCC(C)NC(=O)N1c2ccccc2Sc2ccccc21 (configuration not stated),104,105,-1,-28
Cc1ccc(Cl)cc1N1CCN(C(=O)CCN2C(=O)COc3ccccc32)CC1,103,103,9,-3
NC(=O)N/N=C/c1sc(N2CCCCC2)nc1-c1cccs1,106,110,-8,-115
CN1C(=O)/C(=C/c2ccc(C(=O)N3CCC(Cc4ccccc4)CC3)cc2)Oc2ccccc21,103,108,38,-10
CCCCn1c(N)c(N(CC)C(=O)/C=C/c2ccc(Cl)cc2)c(=O)[nH]c1=O,99,104,-3,7
Brc1ccc(CSc2nc3ccccc3o2)cc1,98,103,-19,-3

The list goes on:
compound,PV pol inh,PV pol inh intensity,MbtI inh,Mtb MenB inh
O=C(OCc1nnc(-c2ccc(Cl)cc2)o1)c1ccc(S(=O)(=O)N2CCc3ccccc3C2)cc1,104,112,-2,-10
Cc1cc(C(=O)COC(=O)c2ccco2)c(C)n1CC1CCCO1 (configuration not stated),104,109,-16,-19
CCC(=O)/C(=C(/O)c1ccccc1)c1nc2ccccc2[nH]1,107,96,-2,11
c1coc(-c2nc3sc4c(N5CCCCC5)ncnc4c3c3c2CCCC3)c1,104,103,37,8
CCOC(=O)c1c(NC(=O)c2ccccc2)sc2c1CC(C(C)C)OC2 (configuration not stated),102,107,29,-16
Nc1cc(Br)cnc1N,65,216,10,0
Clc1ccc(N=Cc2ccc(Br)o2)cc1Cl,125,124,.,-32
Cc1ccc(-c2cn3cccnc3n2)cc1NC(=O)CC(C)(C)C,103,108,102,-7
c1ccc(NCc2cccc3ccccc23)nc1,103,102,.,-13
O=C1CC(c2nnc(-c3ccccc3)o2)CN1c1ccccc1 (configuration not stated),100,107,-6,4

Carrying on:
compound,PV pol inh,PV pol inh intensity,MbtI inh,Mtb MenB inh
COc1ccc(C)cc1NC(=O)c1cc(C(=O)Nc2cc(C)ccc2OC)n(C)n1,105,102,34,-20
c1ccc(-n2ncc3c2ncn2nnnc32)cc1,102,107,.,-10
O=C(CSc1ccc2ccccc2c1)OCC(=O)N1CCCC1,101,102,-1,.
C=CCN1CN(Cc2ccco2)CNC1=S,100,101,-6,-1
CCCCn1c(=O)[nH]c(=O)c2c1nc(-c1ccc(-c3ccc(S(=O)(=O)N(CC)CC)cc3)o1)n2CC(C)C,111,104,-8,-39
O=C(/C=C/c1cn(-c2ccccc2)nc1-c1cccnc1)N1CCCCC1,108,109,-1,.
OC(OCc1ccc(C(O)(C(F)(F)F)C(F)(F)F)o1)(C(F)(F)F)C(F)(F)F,101,106,-13,8
Cc1cccc(C)c1NC(=O)CN(C)C(C)C(=O)Nc1ccc(S(N)(=O)=O)cc1 (configuration not stated),106,109,-2,-19
CC(C)(C)C(=O)COC(=O)c1cccnc1SCC(=O)Nc1ccc2c(c1)OCO2,105,123,-2,7
CCCCN=C(C)C1C(=O)c2ccccc2C1=O,98,98,30,-22

Further structures
compound	PV pol inh	PV pol inh intensity	MbtI inh	Mtb MenB inh
COc1ccc(-n2c(NN)nc3c(c2=O)C2(CCCC2)Cc2ccccc2-3)cc1	99	100	52	-31
CCCCN(C)C(=O)c1cn(-c2cccc(OC)c2)c(=O)c2ccccc12	104	102	-36	-18
CCOC(=O)C(CC)Sc1nc2c(cnn2-c2ccc(C)c(C)c2)c(=O)[nH]1 (configuration not stated)	100	98	2	-3
CCN1CCCC1CNCC(O)COc1ccc(C)cc1 (configuration not stated)	98	106	-3	-18
CCOC(=O)C1=CN(C)C=C(C(=O)OCC)C1c1cccc(OCc2ccccc2)c1	101	100	-11	-47
O=C(Cn1cnc2sccc2c1=O)N1CCCC1c1ccc2c(c1)OCCCO2 (configuration not stated)	102	102	-6	-3
Nc1ccccc1N=c1cc(-c2ccc3c(c2)OCO3)oc2ccccc12	105	105	-2	-10
CC1CCCCN1S(=O)(=O)c1ccc(N2CCCCS2(=O)=O)cc1 (configuration not stated)	100	95	10	13
NC(=O)C1CCN(C(=S)Nc2ccccc2)CC1	.	.	-6	-15
CC1CC1C(=O)OCC(=O)Nc1ccc(C(N)=O)cc1 (configuration not stated)	102	107	-6	.
CC1=C(C(=O)OCc2ccccc2)C(c2cccc(O)c2)C2=C(CC(c3ccccc3)CC2=O)N1 (configuration not stated)	100	96	5	-44
CC(C)(C)C(=O)CSc1nnc(-c2cc(OCC(F)(F)F)ccc2OCC(F)(F)F)o1	103	94	-4	-9
O=C(NC1CCCCCC1)C1CCCO1 (configuration not stated)	103	103	-2	-50
COc1cc(S(=O)(=O)N2CCN(C)CC2)c(C)cc1C	101	102	-5	27
Cc1noc(C)c1COC(=O)c1cc(S(=O)(=O)NC(C)C)ccc1Br	.	.	24	-11
COc1ccccc1N=C1SC(C)CN1C(=O)C1CCC1 (configuration not stated)	98	94	12	-3
COc1ccc(CN)cc1OC	120	125	-1	-20
O=c1c2ccccc2c(=O)n2n1CC=CC2	105	94	2	-19
COC(=O)CSC1=C(C#N)C(=O)NC(c2ccccc2O)S1 (configuration not stated)	103	106	5	-5
COC(=O)NC(Nc1sc2c(c1C(N)=O)CCC2)(C(F)(F)F)C(F)(F)F	104	103	7	-18
COc1ccc(CCNC(=S)NC2CC2)cc1OC	108	114	-14	-19
CN=C(Nc1cc(C)nn1-c1ccccc1)c1ccccc1F	101	105	-13	.
O=C(COC(=O)COc1cccc(Br)c1)Nc1c(Cl)cccc1Cl	103	99	2	.
Cc1noc(C)c1CSCC(=O)NC1=NCCS1	108	108	2	-4
COc1cc(CNc2ccccc2SC)ccc1O	100	100	-20	2
CC(=O)NC(NCC12CC3CC(CC(C3)C1)C2)(C(F)(F)F)C(F)(F)F	110	103	.	-9
COC(C(=O)N1CCCC1c1nnc(SCc2ccccc2)n1C)c1ccccc1 (configuration not stated)	104	102	-11	-41
CN(C(=O)COC(=O)c1c[nH]c(=O)[nH]c1=O)C1CCCCC1	105	107	-5	-15
CCCSc1nc2cc(C)c(C)cc2n1CC(O)CO (configuration not stated)	104	101	-11	.
Cc1cc(=O)oc2c(CN3CCCC3)c(O)ccc12	105	104	118	-29

Going on with the list:
compound	PV pol inh	PV pol inh intensity	MbtI inh	Mtb MenB inh
Clc1nc2cc3c(cc2s1)OCO3	103	95	60	-36
Cc1cccc(CN2C(=O)/C(=C\c3ccc(C(=O)NCCCN4CCN(C)CC4)cc3)Oc3ccccc32)c1	100	101	12	0
Cc1cc(Cl)ccc1OCC(=O)Nc1ccc(Br)cn1	99	103	6	7
CN(C)S(=O)(=O)c1ccc2c(c1)nc(CCC(=O)N1CCc3ccccc3C1)n2C	103	109	-2	-7
COc1ccc2cc(C(=O)NC(C)=O)c(=Nc3ccccc3)oc2c1	103	107	51	-12
CS(=O)(=O)N(CC(=O)Nc1cccc(Cl)c1)c1ccccc1Cl	100	105	-2	-14
C=C1SC(Nc2ccc(F)cc2F)=NC1(CC)CC	107	110	-8	-19
COc1cc(CNC2CCCCC2C)cc(OC)c1 (configuration not stated)	100	105	-77	-11
COc1cccc(NC(=S)N2CCC3(CC2)CC(=O)c2ccccc2O3)c1	104	102	2	-18
Cc1cc(NC(=O)CN2CCc3sccc3C2c2cccs2)no1 (configuration not stated)	104	107	0	-19
CNc1ccccc1C(C)(C)c1cc(-c2ccc(Cl)cc2)no1	99	104	8	-56
Cc1ccc(C(=O)N2CCCC2)cc1NC1=NC2CS(=O)(=O)CC2S1 (configuration not stated)	102	101	-4	-9
O=C(CSc1nnc(COc2ccccc2Cl)o1)NC12CC3CC(CC(C3)C1)C2	105	111	6	-19
O=C(/C=C/c1ccco1)OCC(=O)c1ccc(Cl)s1	102	111	0	-5
O=C(NCC1COc2ccccc2O1)Nc1ccc(Cl)cc1 (configuration not stated)	96	104	-5	-4
Cc1cc(Cl)ccc1NC(=O)CCC(=O)N/N=C1\CCCCC1C (configuration not stated)	98	102	-1	0
NC1C[C@H]1c1ccccc1 (some centres not stated)	98	101	-14	2
Cn1ncc2c(NN3C(=O)CCC3=O)ncnc21	104	105	108	9
Cc1ccc(S(=O)(=O)N2CCCC2C(=O)Nc2nccs2)cc1 (configuration not stated)	108	99	3	-38
CC(OC(=O)c1ccc2c(c1)C(=O)N(Cc1ccco1)C2=O)C(=O)c1ccccc1 (configuration not stated)	103	109	-12	-7
O=C(O)c1ccccc1SCC(=O)C12CC3CC(CC(C3)C1)C2	104	102	2	.
CSc1nnc(C2CCCN(CC(=O)N3CCCC3)C2)n1C (configuration not stated)	106	103	-4	-44
